A1 apoptosis 2 – compounds inhibiting A1, read as caspase activation; MEF A1-2A-BIM cells, caspase-Glo luminescence, 3 h; percent of clofoctol response, DMSO zero; caspase activation, % (no concentration beside the values); 24,000 tested, under 10 active; AID 2465; in the data active = caspase activation above about 5.9%;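 note: wells of about 30 µL received 50 nL stock; the first replicate is given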
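System: mouse embryonic fibroblasts co-expressing A1 and BIM (A1-2A-BIM), primed for A1 dependence; amount: 2500 cells/well; doses: 50 nL pinned compound; schedule: cells settled overnight, compound exposure 3 h at 37 °C, 5% CO2; detection: Caspase-Glo 3/7 luminescence, 1 h at room temperature; read-out: Caspase-3/7 activation, seen as rise in luminescence signal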
* hit, by the source's call. The list is partial; count on the stated rates, not on these rows.

SMILES	A1 apoptosis 2
CNC[C@H]1Oc2c(NC(=O)c3cnccn3)cccc2C(=O)N([C@H](C)CO)C[C@@H]1C	-0.7
C[C@H]1CN([C@@H](C)CO)C(=O)c2cc(NC(=O)C3CCCCC3)ccc2O[C@@H]1CN(C)C(=O)NC1CCCCC1	0.7
Cc1noc(C)c1S(=O)(=O)Nc1ccc2c(c1)C(=O)N([C@@H](C)CO)C[C@H](C)[C@H](CN(C)S(=O)(=O)c1c(C)noc1C)O2	0.2
CC(C)NC(=O)Nc1ccc2c(c1)CC(=O)N([C@H](C)CO)C[C@H](C)[C@H](CN(C)S(=O)(=O)c1ccc(Cl)cc1)O2	-0.4
C[C@@H]1CN([C@@H](C)CO)C(=O)c2cc(NC(=O)NC3CCCCC3)ccc2O[C@@H](C)CCCCO[C@@H]1CN(C)S(=O)(=O)c1ccc(F)cc1	-0.6
Cc1noc(C)c1NC(=O)Nc1ccc2c(c1)C(=O)N([C@@H](C)CO)C[C@@H](C)[C@@H](CN(C)C(=O)CCCN(C)C)OCCCC[C@@H](C)O2	0.0
C[C@H](CO)N1C[C@H](C)[C@H](CN(C)S(C)(=O)=O)Oc2ncc(Br)cc2C1=O	-1.8
O=C(C1=C[C@@H](C2CC2)C[C@@H](OCc2ccc(CO)cc2)O1)N1CCCCCCC1	-0.4
C[C@@H]1CCCCO[C@H](CN(C)C(=O)CCCN(C)C)[C@H](C)CN([C@@H](C)CO)C(=O)c2cc(NS(=O)(=O)c3ccccc3)ccc2O1	-0.5
C[C@@H]1CCCCO[C@@H](CN(C)S(=O)(=O)c2ccc(F)cc2)[C@@H](C)CN([C@H](C)CO)C(=O)c2cc(NC(=O)Cc3ccccc3)ccc2O1	-0.3
COc1ccc(S(=O)(=O)Nc2ccc3c(c2)C(=O)N([C@@H](C)CO)C[C@@H](C)[C@@H](CN(C)Cc2ccccc2)OCCCC[C@@H](C)O3)cc1	-0.7
COc1ccc(NC(=O)Nc2cccc3c2O[C@@H](CN(C)Cc2ccccc2)[C@H](C)CN([C@@H](C)CO)C3=O)cc1	1.1
C[C@@H]1CCCCO[C@@H](CN(C)C)[C@@H](C)CN([C@H](C)CO)C(=O)c2cc(NS(=O)(=O)c3cn(C)cn3)ccc2O1	-0.9
CNC[C@@H]1Oc2ccc(NC(=O)CCN3CCOCC3)cc2C(=O)N([C@@H](C)CO)C[C@H]1C	-0.8
C[C@@H]1CN([C@@H](C)CO)C(=O)c2cc(NS(=O)(=O)c3cn(C)cn3)ccc2O[C@@H]1CN(C)Cc1ccc(C(=O)Nc2ccccc2N)cc1	0.3
C[C@H](CO)N1C[C@H](C)[C@@H](CN(C)Cc2ccc(C(=O)O)cc2)OCCCC[C@H](C)Oc2ccc(NC(=O)Nc3cccc4ccccc34)cc2C1=O	0.3
C[C@H]1CCCCO[C@@H](CN(C)C)[C@@H](C)CN([C@@H](C)CO)C(=O)c2cc(NC(=O)CCC(F)(F)F)ccc2O1	-0.1
C=CC(CO)NS(=O)(=O)c1ccc(Br)cc1 (stereo not drawn)	-0.7
Cn1cc(/C=N/NC(=O)CCCCCCC(=O)Nc2ccccc2O)c2ccccc21	2.9
O=C(C1=C[C@@H](c2coc3ccccc3c2=O)C[C@@H](OCc2ccc(CO)cc2)O1)N1CCOCC1	1.0

Sorted by SMILES length (falling): three of the compounds above.
SMILES	A1 apoptosis 2
COc1ccc(S(=O)(=O)Nc2ccc3c(c2)C(=O)N([C@@H](C)CO)C[C@@H](C)[C@@H](CN(C)Cc2ccccc2)OCCCC[C@@H](C)O3)cc1	-0.7
CNC[C@@H]1Oc2ccc(NC(=O)CCN3CCOCC3)cc2C(=O)N([C@@H](C)CO)C[C@H]1C	-0.8
Cn1cc(/C=N/NC(=O)CCCCCCC(=O)Nc2ccccc2O)c2ccccc21	2.9

Next structures follow.
SMILES	A1 apoptosis 2
C[C@@H]1CCCCO[C@H](CN(C)C(=O)Nc2ccc(C(F)(F)F)cc2)[C@H](C)CN([C@@H](C)CO)C(=O)c2cc(NC(=O)c3ccccc3)ccc2O1	0.3
Cc1ccc(S(=O)(=O)N(C)C[C@@H]2Oc3ccc(NC(=O)Cc4ccccc4)cc3CC(=O)N([C@@H](C)CO)C[C@H]2C)cc1	0.4
C[C@@H]1CN([C@H](C)CO)C(=O)c2cc(NC(=O)Nc3ccccc3)ccc2O[C@@H](C)CCCCO[C@@H]1CN(C)CC1CCCCC1	0.4
C[C@@H]1CCCCO[C@H](CN(C)S(=O)(=O)c2cn(C)cn2)[C@H](C)CN([C@@H](C)CO)C(=O)c2cc(NC(=O)Nc3ccccc3)ccc2O1	-0.2
COc1ccc(S(=O)(=O)Nc2ccc3c(c2)C(=O)N([C@H](C)CO)C[C@@H](C)[C@@H](CN(C)C(=O)Nc2c(C)noc2C)OCCCC[C@@H](C)O3)cc1	-1.1
C[C@H]1CN([C@@H](C)CO)C(=O)c2cc(NC(=O)CCN3CCOCC3)ccc2O[C@@H]1CN(C)C(=O)Nc1ccc2c(c1)OCO2	-0.9
C[C@H]1CN([C@@H](C)CO)C(=O)c2cc(NC(=O)Nc3cccc4ccccc34)ccc2O[C@@H]1CN(C)S(=O)(=O)c1ccc(Cl)cc1	1.2
C[C@@H]1CN([C@@H](C)CO)C(=O)Cc2cc(NC(=O)Nc3ccccc3)ccc2O[C@H]1CN(C)C(=O)Nc1ccc(F)cc1	0.6
Cc1ccc(S(=O)(=O)Nc2ccc3c(c2)CC(=O)N([C@@H](C)CO)C[C@@H](C)[C@@H](CN(C)S(=O)(=O)c2ccccc2)O3)cc1	-0.4
COc1ccc([C@@H]2C=C(C(=O)NCc3ccccc3)O[C@H](OCc3ccc(CO)cc3)C2)cc1	-0.2

Not a retest: an excerpt of the list.
SMILES	A1 apoptosis 2
COc1ccc(S(=O)(=O)Nc2ccc3c(c2)C(=O)N([C@H](C)CO)C[C@@H](C)[C@@H](CN(C)C(=O)Nc2c(C)noc2C)OCCCC[C@@H](C)O3)cc1	-1.1
C[C@H]1CN([C@@H](C)CO)C(=O)c2cc(NC(=O)CCN3CCOCC3)ccc2O[C@@H]1CN(C)C(=O)Nc1ccc2c(c1)OCO2	-0.9
C[C@H]1CN([C@@H](C)CO)C(=O)c2cc(NC(=O)Nc3cccc4ccccc34)ccc2O[C@@H]1CN(C)S(=O)(=O)c1ccc(Cl)cc1	1.2
C[C@@H]1CN([C@@H](C)CO)C(=O)Cc2cc(NC(=O)Nc3ccccc3)ccc2O[C@H]1CN(C)C(=O)Nc1ccc(F)cc1	0.6
Cc1ccc(S(=O)(=O)Nc2ccc3c(c2)CC(=O)N([C@@H](C)CO)C[C@@H](C)[C@@H](CN(C)S(=O)(=O)c2ccccc2)O3)cc1	-0.4

More compounds follow.
SMILES	A1 apoptosis 2
C[C@@H]1CCCCO[C@H](CN(C)C(=O)Nc2ccc3c(c2)OCO3)[C@H](C)CN([C@H](C)CO)C(=O)c2cc(NS(C)(=O)=O)ccc2O1	-0.3
C[C@@H]1CN([C@H](C)CO)C(=O)c2cc(NC(=O)Nc3ccc(F)cc3)ccc2O[C@@H]1CN(C)C	0.5
C[C@H]1CN([C@@H](C)CO)C(=O)c2cc(NC(=O)CCC(F)(F)F)ccc2O[C@@H]1CN(C)S(=O)(=O)c1ccc(Cl)cc1	-0.1
C[C@H]1CN([C@@H](C)CO)C(=O)c2cccc(NS(C)(=O)=O)c2O[C@H]1CN(C)C(=O)Nc1cccc2ccccc12	0.7
C[C@H](CO)N1C[C@H](C)[C@H](CN(C)Cc2ccc(-c3ccccc3)cc2)Oc2c(NC(=O)C3CCCCC3)cccc2C1=O	-0.3
Cc1noc(C)c1NC(=O)Nc1cccc2c1O[C@@H](CN(C)S(=O)(=O)c1ccccc1)[C@@H](C)CN([C@H](C)CO)C2=O	0.8
C[C@H]1CN([C@@H](C)CO)C(=O)c2cccc(NC(=O)NC3CCCCC3)c2O[C@H]1CN(C)Cc1ccc(Cl)c(Cl)c1	-0.1
C[C@H]1CCCCO[C@@H](CN(C)S(=O)(=O)c2ccccc2)[C@@H](C)CN([C@@H](C)CO)C(=O)c2cc(NS(=O)(=O)c3ccccc3)ccc2O1	-1.8
Cc1ccc(S(=O)(=O)Nc2cccc3c2O[C@@H](CN(C)C(=O)NC(C)C)[C@@H](C)CN([C@H](C)CO)C3=O)cc1	-0.5
C[C@@H]1CN([C@@H](C)CO)C(=O)c2cccc(NS(C)(=O)=O)c2O[C@H]1CN(C)C(=O)Nc1ccc(F)cc1	-0.4
C[C@H]1CN([C@@H](C)CO)C(=O)Cc2cc(NS(=O)(=O)c3cn(C)cn3)ccc2O[C@H]1CN(C)Cc1ccc(C(=O)Nc2ccccc2N)cc1	0.0
C[C@H]1CN([C@@H](C)CO)C(=O)Cc2cc(NC(=O)Nc3cccc4ccccc34)ccc2O[C@@H]1CN(C)S(=O)(=O)c1ccc(Cl)cc1	0.4
Cc1noc(C)c1NC(=O)N(C)C[C@@H]1OCCCC[C@@H](C)Oc2ccc(NS(=O)(=O)c3c(C)noc3C)cc2C(=O)N([C@H](C)CO)C[C@H]1C	0.4
C[C@H]1CN([C@@H](C)CO)C(=O)c2cc(NS(C)(=O)=O)ccc2O[C@@H]1CN(C)C(=O)Nc1ccc(C(F)(F)F)cc1	-0.1
C[C@H]1CN([C@@H](C)CO)C(=O)c2cc(NC(=O)CCN3CCOCC3)ccc2O[C@@H]1CN(C)Cc1ccccc1	0.1
COc1ccc(S(=O)(=O)N(C)C[C@@H]2Oc3ccc(NC(=O)Cc4ccccc4)cc3CC(=O)N([C@@H](C)CO)C[C@@H]2C)cc1	-1.6
C[C@@H]1CCCCO[C@H](CN(C)C(=O)Nc2ccccc2)[C@H](C)CN([C@H](C)CO)C(=O)c2cc(NC(=O)C3CCCCC3)ccc2O1	1.5
COc1ccc(S(=O)(=O)N(C)C[C@@H]2OCCCC[C@@H](C)Oc3ccc(NC(=O)CCC(F)(F)F)cc3C(=O)N([C@H](C)CO)C[C@@H]2C)cc1	-0.5
C[C@@H]1CN([C@H](C)CO)C(=O)c2cc(NC(=O)NC3CCCCC3)ccc2O[C@@H]1CN(C)C(=O)Nc1ccc2c(c1)OCO2	0.6
C[C@@H]1CN([C@H](C)CO)C(=O)c2cccc(NC(=O)C3CCOCC3)c2O[C@H]1CN(C)C(=O)Nc1ccccc1	-1.5
C[C@H](CO)N1C[C@H](C)[C@@H](CN(C)C(=O)Nc2ccc(C(F)(F)F)cc2)Oc2c(NC(=O)c3ccncc3)cccc2C1=O	0.0
C[C@@H]1CN([C@H](C)CO)C(=O)c2cc(NC(=O)Nc3ccccc3)ccc2O[C@H]1CN(C)Cc1ccc(Oc2ccccc2)cc1	0.6
C[C@@H]1CCCCO[C@@H](CN(C)C(=O)Cc2ccccc2)[C@H](C)CN([C@H](C)CO)C(=O)c2cc(NC(=O)C3CCCCC3)ccc2O1	0.5
C[C@@H]1CN([C@@H](C)CO)C(=O)c2cc(NS(=O)(=O)c3ccc(F)cc3)ccc2O[C@@H]1CN(C)C(=O)Nc1ccccc1	0.0
COc1ccc(CN(C)C[C@@H]2OCCCC[C@H](C)Oc3ccc(NS(=O)(=O)c4c(C)noc4C)cc3C(=O)N([C@H](C)CO)C[C@H]2C)cc1	-0.3
C[C@@H]1CN([C@@H](C)CO)C(=O)c2cccc(NC(=O)Nc3ccc(C(F)(F)F)cc3)c2O[C@@H]1CN(C)S(=O)(=O)c1ccc(Cl)cc1	-0.1
Cc1noc(C)c1S(=O)(=O)N(C)C[C@@H]1Oc2c(cccc2N(C)C)C(=O)N([C@H](C)CO)C[C@@H]1C	0.7
C[C@H](CO)N1C[C@H](C)[C@H](CN(C)Cc2ccc3c(c2)OCCO3)OCc2cnnn2CCCC1=O	-0.2
CNC[C@@H]1Oc2ncc(-c3ccc(OC)cc3)cc2C(=O)N([C@H](C)CO)C[C@@H]1C	-0.3
C[C@@H]1CN([C@@H](C)CO)C(=O)c2cc(NS(=O)(=O)c3ccc(F)cc3)ccc2O[C@@H](C)CCCCO[C@@H]1CN(C)S(=O)(=O)c1ccccc1	0.4
COc1ccc(S(=O)(=O)Nc2ccc3c(c2)CC(=O)N([C@@H](C)CO)C[C@@H](C)[C@H](CN(C)CC2CCCCC2)O3)cc1	0.1
CC(C)NC(=O)Nc1ccc2c(c1)C(=O)N([C@@H](C)CO)C[C@@H](C)[C@H](CN(C)C(=O)c1ccncc1)OCCCC[C@H](C)O2	1.1
C[C@H]1CN([C@@H](C)CO)C(=O)Cc2cc(NC(=O)NC3CCCCC3)ccc2O[C@@H]1CN(C)C(=O)Nc1ccc2c(c1)OCO2	-0.2
C[C@H]1CN([C@@H](C)CO)C(=O)Cc2cc(NC(=O)Nc3ccccc3)ccc2O[C@@H]1CN(C)C(=O)Nc1ccc(F)cc1	-1.0
CNC[C@H]1OCCCC[C@@H](C)Oc2ccc(NC(=O)Nc3ccc4c(c3)OCO4)cc2C(=O)N([C@H](C)CO)C[C@@H]1C	0.1
C[C@@H]1CCCCO[C@H](CN(C)S(=O)(=O)c2cn(C)cn2)[C@H](C)CN([C@@H](C)CO)C(=O)c2cc(NC(=O)CCCCCC(=O)Nc3ccccc3N)ccc2O1	-0.9
Cc1ccc(S(=O)(=O)N(C)C[C@@H]2OCCCC[C@H](C)Oc3ccc(NC(=O)NC4CCCCC4)cc3C(=O)N([C@@H](C)CO)C[C@H]2C)cc1	-1.6
Cc1ccc(S(=O)(=O)N(C)C[C@H]2Oc3c(NC(=O)NC4CCCCC4)cccc3C(=O)N([C@@H](C)CO)C[C@@H]2C)cc1	0.4
COc1ccc(S(=O)(=O)N(C)C[C@@H]2OCCCC[C@@H](C)Oc3ccc(NC(=O)Cc4ccccc4)cc3C(=O)N([C@@H](C)CO)C[C@H]2C)cc1	1.0
C[C@@H]1CN([C@@H](C)CO)C(=O)c2cccc(NS(C)(=O)=O)c2O[C@@H]1CN(C)Cc1ccc(C(F)(F)F)cc1	0.2
